Screens: PubChem, SRMLSC
H5N1 antiviral – MDCK cell protection from H5N1 avian flu. cytopathic effect, luminescence, 72 h; hits give high values; no value below 0 was filed and about half of the inactive calls have no number; reference of the scale not given here. inhibition, % at 50 µM. 96,000 tested, 0.07% active. AID 740; in the data active = inhibition above about 25%
Active calls of the source: *; i = inactive. The list is partial (hit frequency here may not be typical).

SMILES	H5N1 antiviral
COc1ccccc1CN(CC(=O)NCC1CCCO1)C(=O)CNS(=O)(=O)c1ccc(C)cc1 (configuration not stated)	i
Cc1ccccc1N/N=C/c1ccc(N2CCOCC2)cc1	i
COCc1[nH]nc2c1C(c1sccc1C)C(C#N)=C(N)O2 (configuration not stated)	i
Cc1ccc(-c2cccc(NC(=O)C3C4C=CC(C4)C3C(=O)O)c2)o1 (configuration not stated)	i
Cc1cccc(CCNS(=O)(=O)c2ccc(S(=O)(=O)NC3CCCC3)cc2)c1	0.5
COc1ccc(NC(=O)C2CC(c3cc(OC)c(OC)c(OC)c3)=NO2)cc1OC (configuration not stated)	i
CCCCC(c1nnnn1CCOC)N1CCN(c2cccc(OC)c2)CC1 (configuration not stated)	0.1
CC1CCN(CC(O)COCCC23CC4CC(CC(C4)C2)C3)CC1 (configuration not stated)	i
Cc1oc(-c2ccccc2F)nc1CS(=O)CC(=O)N1CCC2(CC1)OCCO2 (configuration not stated)	0.6
O=C(O)C1CCCCC1C(=O)Nc1ccccn1 (configuration not stated)	i
O=C(O)c1cc(O)ccc1-c1ccc(O)cc1	i
O=C(c1cc(S(=O)(=O)N2CCOCC2)ccc1F)N1CCC2(CC1)OCCO2	0.1
CCC(=O)NCCc1c[nH]c2ccccc12	0.7
CCOC(=O)c1[nH]c2ccc(OC)cc2c1NC(=O)CN1CCc2ccccc2C1	1.5
CCOc1nc(OCC)nc(N2CCC(C)CC2)n1	i
Clc1ccc(Cl)c(OCc2cc(-c3ccccc3Cl)on2)c1	i
CCOc1ccc(CC(=O)NCc2cn3c(C)csc3n2)cc1	1.6
CCc1ccccc1N1C(=O)C2CC=CCC2C1=O (configuration not stated)	0.7
COCCNS(=O)(=O)c1ccc2c(c1)C(=O)c1cc(S(=O)(=O)NCCOC)ccc1-2	i
CC(=O)c1c(C)n(-c2ccccc2)c2ccc(O)cc12	0.4
Cn1cccc1Cc1nnc(SCC(=O)NC2CCCC2)n1CCc1ccccc1	i
CCCn1nc(NC(=O)CC(C)C)c2cc3ccccc3nc21	0.9
COc1ccccc1NC(=O)C1=C(C)Nc2ncnn2C1c1cccs1 (configuration not stated)	0.4
Cn1c(C(=O)NCCCN2CCN(c3cccc(Cl)c3)CC2)cc2c(=O)n(C)c3ccccc3c21	i
Cc1cc(C)c2[nH]c(=O)c(CN(Cc3ccco3)C(=O)c3cccs3)cc2c1	i
CCc1ccc(C2C(C#N)=C(N)SC(N)=C2C#N)s1	i
Fc1ccc(N2CCN(c3ncnc4nc[nH]c34)CC2)cc1	0.2
CC/C(C)=N/Nc1nc2sc3c(c2c(=O)[nH]1)CC(C)(C)OC3	0.1
CC(NC(=O)Nc1ccc(F)cc1F)c1ccncc1 (configuration not stated)	0.2
Cc1cc(OC(C)C)nc(NCc2ccccc2)n1	i

2 successive entries out of the list so far, quoted:
SMILES	H5N1 antiviral
CC(NC(=O)Nc1ccc(F)cc1F)c1ccncc1 (configuration not stated)	0.2
Cc1cc(OC(C)C)nc(NCc2ccccc2)n1	i

Next section.
SMILES	H5N1 antiviral
CS(=O)(=O)N(CC(=O)N1CCN(Cc2ccccc2)CC1)C1CCCCC1	0.8
Cc1cccc(NC(=O)CS(=O)(=O)c2cn(C)c3ccccc23)c1	1.1
CC(C)[C@H](NC(=O)OCc1ccccc1)C(=O)OCC(=O)NC1CCCCC1	i
Cc1ccccc1NC(=S)NCc1cccs1	0.4
CC(c1ccco1)N(C(=O)COc1ccc(Cl)cc1)c1ccccn1 (configuration not stated)	32.6*
O=C(Cc1nn[nH]n1)NCCC1=CCCCC1	0.3
CCOC(=O)N1CCN(c2ncnc3nc[nH]c23)CC1	0.4
COc1ccc(C(=O)/C=C/c2cn(CN3CCN(C)CC3)c3ccccc23)cc1	i
O=C(Cn1nnc2ccccc21)C1CC1	i
Cc1ccc(-n2nc(C(=O)N/N=C/c3cccc(C(F)(F)F)c3)c3ccccc3c2=O)cc1C	0.1
O=c1c2ccccc2ncn1CCCSc1ccc(Cl)cc1	i
O=C(Cc1ccccc1)Nn1cnc2ccccc21	0.3
Cc1cc(C)nc(-n2nc(C)cc2NC(=O)CNC2CCCCC2)n1	1.1
Cc1nn(S(=O)(=O)c2cccs2)c(C)c1Sc1ccc([N+](=O)[O-])cc1	0.8
CSc1ccc(CNc2cccc3ccccc23)cc1	i
Cc1ccc(NC2=NC(c3ccc(O)cc3)n3c(nc(C)cc3=O)N2)cc1 (configuration not stated)	0.5
CC(C)OCCCn1c(=NC(=O)c2ccncc2)c(C#N)cc2c(=O)n3ccccc3nc21	4.4
COc1cc(C2C(C(=O)c3ccco3)=C(O)C(=O)N2c2cc(C)on2)cc(Br)c1O (configuration not stated)	0.6
O=C(CC1SC(=Nc2ccccc2)N(CCCO)C1=O)Nc1ccc(Cl)cc1 (configuration not stated)	3.8
O=S(=O)(/N=C(/Nc1cc(N2CCOCC2)ncn1)c1ccc(F)cc1)c1ccccc1	0.7
COC(=O)c1cc(C(=O)OC)n(Cc2ccc(Br)cc2)n1	0.5
COc1ccc(C)cc1NC(=O)CN(c1ccccc1F)S(C)(=O)=O	1.0
COC(=O)c1ccc(N2C(=O)CC(N(C)Cc3ccccc3)C2=O)cc1 (configuration not stated)	0.2
COc1ccc(C2=CSC3=NCCN23)cc1F	i
Oc1ccccc1-c1nc(NCC2CCCO2)c2ccccc2n1 (configuration not stated)	0.5
COc1cc(N/C(=N/S(=O)(=O)c2ccccc2)c2ccccc2)ncn1	i
COC(=O)c1ccc(NC(=O)C2CC(=O)N(c3cc(C)ccc3C)C2)cc1 (configuration not stated)	1.8
COc1cc(NC(=O)Cn2nnc(-c3ccccc3N)n2)cc(OC)c1	0.7
O=C(COC(=O)c1ccncc1)Nc1cccc(Cl)c1	i
O=C(CCCNS(=O)(=O)c1cccc2nsnc12)NCc1ccccc1	0.7

The results go on.
SMILES	H5N1 antiviral
Cc1cc(NC(=O)CN2C(=O)NC(C)(c3ccccc3)C2=O)no1 (configuration not stated)	i
O=[N+]([O-])c1ccccc1NCc1ccc(Cl)cc1	i
CCOC(=O)c1c(NC(=O)c2nn(CC)cc2Br)c(C#N)nn1-c1ccccc1	0.3
CC(C)(C)OC(=O)N1CCN(c2ccc(CNC(=O)c3ccc(Cl)cc3)cc2)CC1	1.4
Cn1c(SCc2ccccc2Cl)nnc1-c1cnccn1	0.3
CN1C=CC=C/C1=C1\SC(=S)N(c2ccccc2)C1=O	i
CCOCCn1c(CCCO)nc2ccccc21	0.8
COc1ccc(C2CC(C(F)(F)F)n3nc(C(=O)NCc4c(C)nn(C)c4C)c(Cl)c3N2)cc1 (configuration not stated)	5.4
COC(=O)C1=C(C)N(c2ccc(C)c(C)c2)/C(=C/c2cccs2)C1=O	i
CCOC(=O)c1c(CN2CCCCC2)oc2ccc(OC)cc12	i
Cc1cc(C)nc(N(C#N)S(=O)(=O)c2ccccc2)n1	0.1
COc1ccccc1C(=O)NN1C(=O)C2C3C=CC(O3)C2C1=O (configuration not stated)	i
O=C(c1ccc2c(c1)OCO2)N1CCNc2ccccc2C1	1.1
CCn1ncc(C(=O)Nc2ccc(S(=O)(=O)N3CCCC3)cc2)c1C	i
COc1cc2c(cc1OC)CN(C(C)C(=O)N1CCc3ccccc31)CC2 (configuration not stated)	i
COc1ccc(NC(=O)c2nc3nccc(C)n3n2)cn1	i
CCCC(=O)N(Cc1cc2ccccc2[nH]c1=O)c1ccccc1OC	0.5
COc1ccc2c(c1)c1nc3ccccc3nc1n2CC(=O)OC(C)C	i
COCCCn1c(-c2ccc(OC)cc2)nc2nc3ccccc3nc21	1.2
O=C(COc1ccc(Br)cc1)OCc1nnc(-c2ccccc2)o1	0.7
Cc1n[nH]c(C)c1S(=O)(=O)N1CCCC(C(=O)NCC2COc3ccccc3O2)C1 (configuration not stated)	0.6
O=C(c1ccco1)N1CCN(Cc2ccc(Cl)cc2)CC1	0.1
COc1cccc(OCCCN2CCN(S(=O)(=O)c3ccc(NC(C)=O)cc3)CC2)c1	0.2
COc1ccc(C(=O)Nc2c(N)nc(SCC(=O)N3CCCCCC3)[nH]c2=O)cc1OC	2.0
Cc1noc(C)c1COC(=O)CCc1nc2ccccc2s1	0.2
COC(=O)c1cc(NC(=O)CC2SC(=Nc3ccccc3)N(CCc3c[nH]c4ccccc34)C2=O)cc(C(=O)OC)c1 (configuration not stated)	1.9
CN1CCN(c2ccc(NC(=O)c3ccccc3Br)cc2)CC1	i
CCOC(=O)Cc1cc(=O)n2[nH]c(C)c(-c3ccc(Cl)cc3)c2n1	i
CCn1c(CNc2cccc(Cl)c2)nnc1SCc1ccccc1	i
Cc1ccc(S(=O)(=O)N2CCCC2C(=O)Oc2ccccc2)cc1 (configuration not stated)	i

Next section:
mol,H5N1 antiviral
CCOc1cc(NC(=O)c2ccco2)c(OCC)cc1NC(=O)COc1ccccc1,i
COc1ccc(/C=C2/N=C(c3cccs3)OC2=O)cc1OC(C)C,1.4
Cc1ccc(N(CC(=O)NC2CCC(C)CC2)S(=O)(=O)c2cccnc2)cc1 (configuration not stated),2.1
O=C(NCc1ccccn1)C1CCCN(S(=O)(=O)c2ccc(Br)cc2)C1 (configuration not stated),1.2
Cc1sc(NC(=O)c2ccco2)c(CN2CCCCC2)c1C,i
O=C(NNC(=O)c1cc(O)c(O)c(O)c1)NC1CCCCC1,1.5
Cc1cc(S(=O)(=O)N2CCCC2)c(C)s1,1.1
Cc1nc2cc(NC(=O)N3CC4(C)CC3CC(C)(C)C4)ccc2n1C (configuration not stated),2.0
CCCCn1c(CNC(C)=O)nc2ccccc21,0.2
Cc1ccc(-c2cc(N)n(Cc3ccc(Cl)cc3)n2)cc1,0.3
CNC(=O)CCn1nc(-c2ccc(Cl)cc2)c2ccccc2c1=O,0.8
Clc1ccc(-c2nnc(-c3ccc(Br)o3)o2)c(Cl)c1,i
Cc1cc(C)c(S(=O)(=O)NCC2CCC(C(=O)NCCCN3CCOCC3)CC2)c(C)c1 (configuration not stated),0.6
O=C(Cc1ccccc1)Nc1c(C(=O)N2CCOCC2)cnn1-c1ccccc1,i
Cc1ccc(-c2nc(CSCC(=O)N3CCCC3)c(C)o2)cc1,0.9

Sorted by SMILES length (low to high): part of the list above.
mol,H5N1 antiviral
O=C(Cn1nnc2ccccc21)C1CC1,i
O=C(Cc1ccccc1)Nn1cnc2ccccc21,0.3
CCOc1nc(OCC)nc(N2CCC(C)CC2)n1,i
COc1ccc(NC(=O)c2nc3nccc(C)n3n2)cn1,i
CCOC(=O)c1c(CN2CCCCC2)oc2ccc(OC)cc12,i
Cc1cc(C)nc(N(C#N)S(=O)(=O)c2ccccc2)n1,0.1
Clc1ccc(Cl)c(OCc2cc(-c3ccccc3Cl)on2)c1,i
O=C(COc1ccc(Br)cc1)OCc1nnc(-c2ccccc2)o1,0.7
CC(c1ccco1)N(C(=O)COc1ccc(Cl)cc1)c1ccccn1 (configuration not stated),32.6*
COc1cc(NC(=O)Cn2nnc(-c3ccccc3N)n2)cc(OC)c1,0.7
Cc1cccc(NC(=O)CS(=O)(=O)c2cn(C)c3ccccc23)c1,1.1
COc1ccc(C(=O)/C=C/c2cn(CN3CCN(C)CC3)c3ccccc23)cc1,i
COc1ccc(NC(=O)C2CC(c3cc(OC)c(OC)c(OC)c3)=NO2)cc1OC (configuration not stated),i
Cc1cc(C)c(S(=O)(=O)NCC2CCC(C(=O)NCCCN3CCOCC3)CC2)c(C)c1 (configuration not stated),0.6
Cc1ccc(-n2nc(C(=O)N/N=C/c3cccc(C(F)(F)F)c3)c3ccccc3c2=O)cc1C,0.1

The list continues.
mol,H5N1 antiviral
O=C(CSc1c2c(nc3cc(Cl)ccc13)CCCC2)NCc1ccco1,7.1
Cc1cc(C)c2nc(N3CCCC3)c(C#N)cc2c1,0.2
COC(=O)c1cc(OC)c(OC)cc1NC(=O)Nc1ccccc1OC,i
CS(=O)(=O)N1CCN(c2ccc(NC(=O)c3ccc(Br)o3)cc2)CC1,0.3
Nn1cnn(Cc2ccccc2)c1=S,0.5
COc1ccccc1OCCN1C(=O)S/C(=C\c2ccco2)C1=O,i
Cc1cc(=O)[nH]c2ccc(Cl)cc12,0.1
CCn1nc(NC(=O)c2ccco2)c2cc3ccc(C)cc3nc21,0.9
COc1ccc(NS(=O)(=O)c2c(C)n(C)c(=O)n(C)c2=O)cc1OC,i
CCNc1nc(SCc2ccccc2)nc(N2CCOCC2)n1,1.9
Cc1cnnc2c1-c1no[n+]([O-])c1CC2,1.8
O=C1NC2(CCCCC2)C(=O)N1/N=C/c1ccc(O)cc1O,i
Cc1cc(Nc2cc(C(=O)O)ccc2C)n2ncnc2n1,0.9
CN(C)CCN1C(=O)C(=O)/C(=C(/O)c2ccc(OCc3ccccc3)cc2)C1c1ccncc1 (configuration not stated),1.3
COc1ccc(C(=O)NC(C)c2nc3ccccc3n2C)cc1OC (configuration not stated),0.6

Next structures follow:
mol,H5N1 antiviral
CCC(C)NC(=O)C1CCCN(C(=O)NC2CCCCC2)C1 (configuration not stated),0.0
Cc1cc(C(=O)N/N=C/c2cccc(OC(=O)c3ccco3)c2)n[nH]1,i
Cc1ccc(S(=O)(=O)N2CC3CCCN3c3ccc(C(F)(F)F)cc32)cc1 (configuration not stated),i
CCOC(=O)c1c(C)[nH]c(N=Nc2cccc(C)c2)c1C,8.5
COc1ccc(-n2c(Cc3cccn3C)nnc2SCC(=O)Nc2ccc(C)cc2)cc1,1.6
N#Cc1ccc(NC(=O)c2sc3cc(C(F)(F)F)cnc3c2-c2cccs2)cc1,i
COc1cccc(CNc2ccc(F)c(Cl)c2)c1,i
C=C(C)COc1ccc2c3c(c(=O)oc2c1OCC(=C)C)CCC3,0.6
COc1ccc(CCN2C(=O)CC(NCc3ccc4c(c3)OCO4)C2=O)cc1OC (configuration not stated),0.1
C=CCn1c(=N)n(CC(=O)OCC)c2ccccc21,0.1
CN1CCC(N(C)c2nc(-c3ccc([N+](=O)[O-])cc3)nc3ccccc23)CC1,i
COc1cc(C(=O)N[C@H](C(=O)NC(C)C23CC4CC(CC(C4)C2)C3)C(C)C)cc(OC)c1OC (some centres not stated),i
